Screens (PubChem)
VDR inhibitor = inhibitors of human vitamin D receptor | P11473 | VDR-SRC2-3 peptide fluorescence polarization, 2 h | Potency, µM, for the others: max response, negative = inhibition, hits mostly inhibitors | hit rate 0.93% among 400,000 | AID 504847; active = well fitted inhibition curve with a large enough effect; inconclusive = small, poorly fitted or top-dose-only effect, or another doubt; inactive = no such curve, though single readings can be large or run the other way; note: series mostly up to about 120 µM
Target sequence (P11473 whole entry, looked up): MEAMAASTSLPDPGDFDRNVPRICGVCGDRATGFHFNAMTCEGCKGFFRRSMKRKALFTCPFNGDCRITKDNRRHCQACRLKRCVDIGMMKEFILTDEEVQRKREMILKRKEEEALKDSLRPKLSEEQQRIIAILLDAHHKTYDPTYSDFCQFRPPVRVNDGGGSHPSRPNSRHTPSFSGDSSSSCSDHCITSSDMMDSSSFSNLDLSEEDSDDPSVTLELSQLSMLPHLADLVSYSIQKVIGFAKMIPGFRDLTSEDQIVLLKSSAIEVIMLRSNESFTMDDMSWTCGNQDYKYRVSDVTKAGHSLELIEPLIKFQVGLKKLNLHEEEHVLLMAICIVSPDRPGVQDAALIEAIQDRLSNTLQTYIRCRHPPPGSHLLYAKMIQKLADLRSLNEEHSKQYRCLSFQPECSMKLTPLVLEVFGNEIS
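Fluorescence polarization assay of small-molecule disruption of VDR binding to coregulator peptide SRC2-3. Compounds and controls pin-transferred, then read after 2 h incubation at ambient room temperature.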
An asterisk follows results filed as active; ? = inconclusive; [ ] = another dose, or the depositor's remark. % is set by controls: 0 for no effect and ±100 for the full control effect; potency is the fitted concentration of half-maximal effect. An excerpt; rates above refer to the full screens.

Start of the data: the first 20 compounds, to show the layout:
SMILES	VDR inhibitor
CCN(c1cccc(C)c1)S(=O)(=O)c1ccc2c(c1)CCN2C(C)=O	1%
O=C(c1cnc2ccccn2c1=O)N1CCc2ccccc21	-15%
Cc1cc(C(=O)CCC(=O)N2CCN(c3ccccc3)CC2)c(C)s1	-1%
COc1ccccc1CNC(=O)COC(=O)c1cccc(-n2cnnn2)c1	0%
CC(C)(O)c1[nH]c2cc(C(F)(F)F)ccc2c1C(C)(C)O	-15%
CC(Sc1cccc2cccc(C(=O)O)c12)C(=O)O (configuration not stated)	7%
O=c1c(-c2ccc(F)cc2)nc2cnc(N3CCOCC3)nc2n1-c1ccccc1	-2%
CCN(CC)S(=O)(=O)c1ccc2c(c1)c(=O)c(C(=O)N1CCN(c3ccccn3)CC1)cn2C	0%
Cc1ccc(S(=O)(=O)N2CCCCC2C(=O)N2CCN(C)CC2)cc1 (configuration not stated)	3%
COc1ccc(CNC(=O)c2cc3sccc3n2Cc2ccc(C)cc2)cc1	-2%
Cc1ccc(C)c(S(=O)(=O)Nc2ccc3c(c2)CCCN3C(=O)c2cccs2)c1	8%
CCC(C)(C)n1nnnc1CN1CCN(c2ccc(OC)cc2)CC1	-2%
CN(C(=O)c1cccs1)c1ccc(OCC(=O)Nc2ccc(C(=O)O)cc2)cc1	1%
CC(=O)N1CCN(c2ccccc2NC(=O)c2cccs2)CC1	10%
O=C(Cn1c(=O)oc2cc(S(=O)(=O)NC3CCCC3)ccc21)Nc1ccc(F)c(F)c1	1%
C=CC(=O)N1C/C(=C/c2ccc(Cl)cc2)C(=O)/C(=C\c2ccc(Cl)cc2)C1	?
CC(C)c1nc(NCCN2CCOCC2)c(C#N)c2c1COC(C)(C)C2	-10%
O=C(Nc1nc2c(s1)CCCC2)c1ccc(Br)o1	-7%
CSc1nc(NC(C)=O)nc(C)c1Br	-3%
CC(=O)NCCc1nc2ccccc2n1CCOc1ccccc1C	-8%

All compounds of this part, from the start:
SMILES	VDR inhibitor
CCN(c1cccc(C)c1)S(=O)(=O)c1ccc2c(c1)CCN2C(C)=O	1%
O=C(c1cnc2ccccn2c1=O)N1CCc2ccccc21	-15%
Cc1cc(C(=O)CCC(=O)N2CCN(c3ccccc3)CC2)c(C)s1	-1%
COc1ccccc1CNC(=O)COC(=O)c1cccc(-n2cnnn2)c1	0%
CC(C)(O)c1[nH]c2cc(C(F)(F)F)ccc2c1C(C)(C)O	-15%
CC(Sc1cccc2cccc(C(=O)O)c12)C(=O)O (configuration not stated)	7%
O=c1c(-c2ccc(F)cc2)nc2cnc(N3CCOCC3)nc2n1-c1ccccc1	-2%
CCN(CC)S(=O)(=O)c1ccc2c(c1)c(=O)c(C(=O)N1CCN(c3ccccn3)CC1)cn2C	0%
Cc1ccc(S(=O)(=O)N2CCCCC2C(=O)N2CCN(C)CC2)cc1 (configuration not stated)	3%
COc1ccc(CNC(=O)c2cc3sccc3n2Cc2ccc(C)cc2)cc1	-2%
Cc1ccc(C)c(S(=O)(=O)Nc2ccc3c(c2)CCCN3C(=O)c2cccs2)c1	8%
CCC(C)(C)n1nnnc1CN1CCN(c2ccc(OC)cc2)CC1	-2%
CN(C(=O)c1cccs1)c1ccc(OCC(=O)Nc2ccc(C(=O)O)cc2)cc1	1%
CC(=O)N1CCN(c2ccccc2NC(=O)c2cccs2)CC1	10%
O=C(Cn1c(=O)oc2cc(S(=O)(=O)NC3CCCC3)ccc21)Nc1ccc(F)c(F)c1	1%
C=CC(=O)N1C/C(=C/c2ccc(Cl)cc2)C(=O)/C(=C\c2ccc(Cl)cc2)C1	?
CC(C)c1nc(NCCN2CCOCC2)c(C#N)c2c1COC(C)(C)C2	-10%
O=C(Nc1nc2c(s1)CCCC2)c1ccc(Br)o1	-7%
CSc1nc(NC(C)=O)nc(C)c1Br	-3%
CC(=O)NCCc1nc2ccccc2n1CCOc1ccccc1C	-8%
Cn1c(SCc2cccc(Br)c2)nnc1-c1ccccn1	7%
O=c1[nH]c(CSc2ccccc2)nc2c1oc1ccccc12	12%
CCCCN1C(=N)N([C@@H](C)CN2CCC[C@H]2CN2C(N)=NC[C@H]2CC(C)C)C[C@H]1Cc1ccccc1	1%
COc1ccc(C(CNC(=O)c2cc(S(=O)(=O)NCc3ccco3)ccc2C)N(C)C)cc1 (configuration not stated)	-10%
O=C(NC1CCCCCC1)c1cc2c(Cl)nc3ccccc3c2s1	2%
COc1cccc(CC(=O)NCC2COc3ccccc3O2)c1OC (configuration not stated)	10%
Cc1ncc([N+](=O)[O-])n1C[C@H](O)CCl	-5%
CCOc1ccccc1C(=O)N(Cc1ccc(N(C)C)cc1)CC1CCCO1 (configuration not stated)	11%
O=C1CCCc2cc3c(cc21)CC1(C3)Cc2cc3c(cc2C1)C(=O)CCC3	-18%
COC(=O)c1sc(=S)n(-c2ccccc2)c1N	79µM*
O=C(Nc1nc2cc3c(cc2s1)OCCO3)c1cccs1	-5%
CCC1(c2ccccc2)NC(=O)N(CC(=O)Nc2cc(C(F)(F)F)ccc2N2CCCC2)C1=O (configuration not stated)	-13%
CN(CC1CCCO1)S(=O)(=O)c1ccc(C(=O)Nc2ccc(S(N)(=O)=O)cc2)cc1 (configuration not stated)	22%
COc1ccc(OCc2cc(C(=O)N(C)CCC3CCOCC3)no2)c(Cl)c1	?
C[C@H](NC(=O)C1(c2ccccc2)CCN(C(=O)OC(C)(C)C)CC1)C(=O)N[C@@H](C(=O)O)c1ccccc1	-10%
O=C(CN1CCN(Cc2ccccc2)CC1)NNC(=O)c1ccccc1	5%
O=c1cc(CSc2nnnn2-c2ccccc2)[nH]c2[nH]n(-c3ccccc3)c(=O)c12	-10%
CCCCCSc1nc2c(cnn2-c2ccccc2)c(=O)[nH]1	-2%
COc1ccc(C2=NN(c3ccc(C=O)cc3)C(c3ccccc3)C2)cc1 (configuration not stated)	-19%
COCCOC(=O)C1=C(C)NC(=S)NC1/C=C/c1ccccc1 (configuration not stated)	-11%
Cc1csc(NC(=O)COc2ccc3c(C)cc(=O)oc3c2)n1	-7%
O=C(COC(=O)/C=C/c1cccs1)NC1CC1	-9%
COc1ccc(OC(=O)c2ccc(OC)c(S(=O)(=O)N3CCOCC3)c2)cc1	-8%
COCc1c(C(=O)N2CCN(c3ccccc3C)CC2)oc2ccccc12	-3%
COc1ccccc1CNC(=O)[C@@H]1CCCN1S(=O)(=O)c1ccc(C)cc1	9%
Cn1cc(C(=O)C(=O)N2CCN(c3ccccc3)CC2)c2ccccc21	-12%
Brc1ccc(-c2nc(-c3ccncc3)no2)o1	22%
CCN(CC(=O)Nc1c(F)cccc1F)C(=O)CCOc1ccccc1	-5%
CCCCCCCCCCCCCCCCCC(=O)OC[C@@H](O)[C@H]1OC[C@H](O)[C@H]1O	-1%
CN1CCN(Cc2nc(Cc3ccccc3)no2)CC1c1ccccc1 (configuration not stated)	-3%
The results go on.
SMILES	VDR inhibitor
COCc1[nH][nH]c(=O)c1/C=N/N1CCOCC1	3%
COc1cccc(C(=O)C2CCCN(Cc3c(C)n(C)n(-c4ccccc4)c3=O)C2)c1 (configuration not stated)	-1%
Cc1c2cnn(CC(=O)Nc3ccc(F)cc3F)c(=O)c2c(C)n1Cc1cccc(Cl)c1	6%
CCc1ccc(C(=O)COC(=O)[C@@H](NC(N)=O)[C@@H](C)CC)cc1	8%
O=S(=O)(Nc1cccc(-c2cn3cccnc3n2)c1)c1ccccc1	-5%
CC12CCC(=O)N1C(C(=O)OCC(=O)Nc1ccc(S(N)(=O)=O)cc1)CS2 (configuration not stated)	-16%
CCCCNC(=O)c1ccc2c(OCC)n(CCCC)nc2c1	2%
O=C(Cn1nc(-c2ccc(F)cc2)ccc1=O)Nc1ccc(C(=O)NC2CC2)cc1	30%
O=C(c1ccccc1)N1CCCC(c2nc3c(nnn3Cc3ccccc3)c(=O)[nH]2)C1 (configuration not stated)	34%[activator]
CCOC(=O)C1(C)NC(c2ccc(N(C)C)cc2)C2C(=O)N(CC)C(=O)C21 (configuration not stated)	-24%
c1nc(Nc2ccc(N3CCOCC3)cc2)c2ccsc2n1	31%[activator]
O=C(NCCC1=CCCCC1)c1cc(-c2ccccn2)nc2ccccc12	12%
COc1ccc(Cl)cc1NC(=O)CN(C)CC(=O)Nc1cccc(S(=O)(=O)N2CCCC2)c1	-7%
S=C(Nc1cccc(Cl)c1)N(CCCN1CCCC1)Cc1cccn1Cc1ccc(Cl)cc1	-14%
O=C(Nc1ccc(F)cc1)Nc1sccc1-c1nc2ccccc2s1	6%
Cc1ccc(S(=O)(=O)NCc2ccccc2C)cc1	-1%
Cc1noc(C)c1COc1ccc(C(=O)N2CCN(c3ccccn3)CC2)cc1	9%
COc1ccc(/C=N/Nc2ncccc2[N+](=O)[O-])c(OC)c1	-17%
Cc1ccc(NC(=O)C2CCCN2C(=O)NCc2ccccc2)cc1 (configuration not stated)	?
N#Cc1c(NC(=O)COC(=O)c2nccnc2N)sc2c1CCCC2	-14%
O=C(COc1ccccc1F)NNC(=O)c1ccc(F)c(S(=O)(=O)N2CCOCC2)c1	-13%
CCN(CC)CCCNC(=O)C1c2cc(OC)c(OC)cc2C(=O)N(C)C1c1cccs1 (configuration not stated)	-5%
Cc1cc(C)n2nc(CC(=O)NCc3ccc(F)cc3)nc2n1	-26%
CC1CCN(CCCNC(=O)Cn2ncc3c([nH]c4ccccc43)c2=O)CC1	9%
CCOC(=O)CSc1nnc(CNc2ccc(Cl)cc2)n1-c1ccccc1	1%
CCOC(=O)c1cnn(-c2ccccc2)c1NC(=O)CSc1nnc(-c2cccs2)n1CC	8%
COc1cccc(CNC(=O)CSc2ccc(-c3ccco3)nn2)c1	-20%
CC(C)CC(NC(=O)c1ccc(Cl)cc1)C(=O)O (configuration not stated)	0%
OCCN1CCN(Cc2nc(-c3cccc(Cl)c3)no2)CC1	1%
CC(C)(C)c1ccc(SCC(N)=O)cc1	-10%
Cc1ccc(S(=O)(=O)NCCc2nc3ccccc3[nH]2)cc1	10%
Cc1ccc(CN(CC(=O)NCCc2ccccc2)C(=O)CCCC(=O)Nc2cc(C)on2)cc1	4%
O=C(CCNC(=O)c1ccc([N+](=O)[O-])cc1)Nc1nc2ccccc2[nH]1	13%
Cn1ncc(Br)c1C(=O)NC1CCCCC1	14%
Cc1cccc(NC(=O)c2ccc(S(=O)(=O)NCc3cccnc3)cc2)c1	-3%
Cc1ccc(CCNS(=O)(=O)c2ccc3c(c2)CC(C)N3C(=O)C2CCC2)cc1 (configuration not stated)	6%
CCCCc1ccc(NC(=O)C2CCCC2)cc1	-8%
CCOC(=O)c1cc2c(ccn2C)n1CC(=O)N1CCC(C)CC1	-13%
NC(Cc1ccc(OC(F)F)cc1)C(=O)O (configuration not stated)	-1%
COc1ccc(-c2coc3cc(O)cc(O)c3c2=O)cc1	-22%
N#Cc1c2ccc(OCC(=O)NCc3ccco3)cc2n2ccccc12	-10%
O=C(CN1CCN(S(=O)(=O)c2ccccc2F)CC1)NC1CCCC1	3%
CCNC(=S)NCCN1CCOCC1	-9%
Cc1ccc(NC(=O)Cn2c(=O)n(Cc3ccc(C(=O)NCc4ccc5c(c4)OCO5)cc3)c(=O)c3ccccc32)cc1	1%
CCCCN1Cc2cc(C(=O)c3cc(F)ccc3O)cnc2NC1=O	?
CCc1cc2ccc(C)cc2nc1SCC(=O)N1CCN(C(=O)c2ccco2)CC1	79µM*
O=C(CSc1ncc(-c2ccc(F)cc2)[nH]1)Nc1cccc(O)c1	-13%
Cc1cc2oc(C(=O)N(Cc3ccccc3)C3CCS(=O)(=O)C3)c(C)c2cc1C (configuration not stated)	-3%
O=C(Cn1nnc(-c2ccccc2)n1)N1CCN(c2ccc(F)cc2)CC1	-17%
COc1ccc(OC)c(NC(=O)NNC(=O)COc2ccc([N+](=O)[O-])cc2)c1	6%
Next entries follow.
SMILES	VDR inhibitor
OC1(c2cccnc2)CCN(Cc2nnnn2Cc2ccccc2)CC1	-2%
COc1ccccc1N1CCN(S(=O)(=O)c2ccc(Cl)s2)CC1	-6%
CCOC(=O)c1sc(NC(NC(=O)c2ccco2)(C(=O)OC)C(F)(F)F)nc1C (configuration not stated)	-10%
CCOC(=O)CC1ON(C)C(=O)N1c1ccc([N+](=O)[O-])cc1 (configuration not stated)	15%
Cn1ccnc1SCc1cc(=O)[nH]c2ccccc12	11%
COc1cccc2c1cc1c(=O)n(CC(=O)N3CCN(c4cc(Cl)ccc4C)CC3)nc(C)n12	17%
N#Cc1c(-c2cccc(Br)c2)cc(-c2cccnc2)nc1N	-4%
O=[N+]([O-])c1c(C(Cl)Cl)nn(-c2ccccc2)c1N1CCOCC1	15%
COc1cc2c(cc1OC)CN(C(=O)c1cc(S(=O)(=O)N3CCCCC3)ccc1Cl)CC2	14%
Cc1ccc(N2C(=O)c3cccc(Oc4ccc(Cl)cc4)c3C2=O)c(C)c1	-9%
CN(C)c1nc2c(c(=O)[nH]c(=O)n2C)n1CCOc1ccccc1	-12%
O=C(Cc1cccs1)Nc1nnc(CCc2ccccc2)s1	5%
COc1ccc(-c2noc(CN(C(=O)Cc3ccc(C)cc3)C(C)C)n2)cc1	-7%
Cc1cc(C)c(S(=O)(=O)N(C2=NCCS2)S(=O)(=O)c2c(C)cc(C)cc2C)c(C)c1	8%
O=[N+]([O-])c1ccccc1OCCCNCc1ccccc1	10%
CS(=O)(=O)c1sc2nc(-c3ccccc3)cc(-c3ccccc3)c2c1N	-14%
CC(=O)N1CCC2(CC1)C(C#N)=C(N)Oc1n[nH]c(CSc3ccc(C)cc3)c12	0%
CCC(=O)N1CCc2cc(S(=O)(=O)CCC(=O)Nc3ccc(C)c(F)c3)ccc21	-6%
CC(=O)OCC(=O)[C@@]1(O)CC[C@H]2[C@@H]3CCC4=CC(=O)CC[C@]4(C)[C@@H]3C(=O)C[C@@]21C	-8%
